Compound activity deposited in PubChem BioAssay by National Center for Advancing Translational Sciences (NCATS).
HSD17B inhib = inhibitors of human HSD17B10 dehydrogenase; actives 7.6% (n = 75,000); AID 893; Q99714; Potency, µM (titrated, usually from 57.1 µM), for the others: at the top dose activity change, negative = inhibition, hits mostly inhibitors; recombinant HSD17B10, NADH fluorescence kinetic; many of its hits are not listed in these tables; active = well fitted inhibition curve with a large enough effect; inconclusive = small, poorly fitted or top-dose-only effect; inactive = no such curve, though single readings can be large or run the other way;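 note: the protocol describes HADH2 (HSD17B10) and not the HSD17B4 of the title; nearly all actives have a fitted effect of over 70% in size; most hits overshoot -100% by far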
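Enzyme plus compound, 15 min room temperature; substrate mix added (NAD+ 1 mM, beta-hydroxybutyryl-CoA 90 uM final); plates read kinetically for NADH fluorescence. HADH2 was His-tagged, E. coli-derived, 20 nM.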
Active calls of the source: *; ? = inconclusive; [ ] = remark or other dose. % is set by controls: 0 for no effect and ±100 for the full control effect; potency is the fitted concentration of half-maximal effect. Not all compounds are listed, so the mix of outcomes need not match the whole.

SMILES	HSD17B inhib
COCCCNC(=O)CCn1c(=O)c2ccccc2n(CC(=O)Nc2cc(Cl)ccc2C)c1=O	9%
CN(C)c1nc(N)nc(CSc2n[nH]c(-c3ccccc3)n2)n1	-2%
CC(=O)Nc1ccc(C(=O)CSc2nnnn2C(C)C)cc1	-13%
COC(=O)c1cc(NCc2ccccc2F)ccc1N1CCOCC1	12%
COc1ccc(NC(=O)Cn2nnc(C(=O)NCc3ccccc3)c2N)cc1Cl	7%
CC(=O)Nc1ccc2nc(-c3cccnc3)[nH]c2c1	?
CCCCn1c(N)c(N(CCC(C)C)C(=O)COC(=O)c2ccco2)c(=O)[nH]c1=O	0%
Cc1cc(C)nc(/N=C2\NC(=O)CC(C(=O)O)N2c2ccc(Oc3ccccc3)cc2)n1 (stereo not drawn)	14%
Cc1ccc(C)c(NC(=O)NCc2ccc(Cl)cc2)c1	2%[11.4 µM]
CC1CCN(c2nnc(N)s2)CC1	6%
CCOC(=O)CNC(=O)CSc1nc2ncc(Br)cc2[nH]1	-5%
COc1ccc(N2CCN(c3oc(COc4ccc(Cl)cc4Cl)nc3C#N)CC2)cc1	0%
O=C(CCCn1c(=O)[nH]c2cc(Cl)ccc2c1=O)NCCCN1CCCC1	-26%
COc1ccccc1NC(=O)c1cc(S(=O)(=O)N2CCOCC2)ccc1Cl	9%
COc1ccccc1C(c1nnnn1C(C)(C)C)N1CCCCCC1 (stereo not drawn)	7%
CCOC(=O)c1ccc(N2C(=O)C(O)=C(C(C)=O)C2c2ccccn2)cc1 (stereo not drawn)	?
CC(=O)c1c(COC(=O)c2ccco2)nc2ccccc2[n+]1[O-]	0%
CNc1nc(-c2ccccc2C(F)(F)F)nc2ccccc12	-11%
CC1=C(C(=O)OCc2ccccc2)C(c2ccccc2OC(F)F)NC(=O)N1 (stereo not drawn)	-7%
CCOC(=O)c1c(CN2CCC(C)CC2)oc2ccc(OC)cc12	-5%
Cc1ccc(C)c(C(=O)NCCN(C)C)c1	5%
COc1ccc2c(c1)OCC(Cc1ccc(O)c(OC)c1)C2=O (stereo not drawn)	-3%
CC1CCC(O)([C@](C)(C(=O)O)c2ccccc2)CC1 (stereo partly drawn)	10%[11.4 µM]
c1ccc(-c2ccccc2-c2nc(-c3ccncc3)no2)cc1	15%
Cc1cc(=O)n2[nH]c(-c3ccccc3Cl)cc2n1	-3%

Part of the list above, as labelled records:
CCOC(=O)c1ccc(N2C(=O)C(O)=C(C(C)=O)C2c2ccccn2)cc1 (stereo not drawn)
  HSD17B inhib = ?
c1ccc(-c2ccccc2-c2nc(-c3ccncc3)no2)cc1
  HSD17B inhib = 15%

(more compounds)
SMILES	HSD17B inhib
CNC(=O)c1c(I)c(C(=O)NCC(=O)Nc2c(I)c(C(=O)O)c(I)c(C(=O)NCCO)c2I)c(I)c(N(C)C(C)=O)c1I	3%[25.6 µM]
Nc1ccc(Cl)c(NC(=O)c2cccs2)c1	-2%
CCOc1ccc(-c2nnc(N)s2)cc1	?
O=C(Cn1c(=O)oc2ccccc21)NC(=O)NCc1ccco1	3%
Cc1ccsc1C(=O)OC1CCOC1=O (stereo not drawn)	-1%
COc1ccccc1C(=O)N1CCN(CCc2ccccc2)CC1	-10%
COC(=O)C(CC(C)C)NC(=O)CSc1nc(-c2ccccc2)c(C#N)c(=O)[nH]1 (stereo not drawn)	-10%
CCOc1ccccc1C(=O)NC1CC2CCCC(C1)N2Cc1nnnn1Cc1ccco1 (stereo not drawn)	7%
Cc1ccc(S(=O)(=O)N2CCCC(c3nnc4n3-c3ccccc3SC4)C2)cc1 (stereo not drawn)	8%
CC(=O)Nc1ccc(S(=O)(=O)Nc2ccc(N3CCOCC3)c(F)c2)cc1	10%
CC(C)C(OC(=O)C1CCCO1)C(=O)NC1CCCC1 (stereo not drawn)	1%
COc1ccc(NC(=O)N2CCCC3(CCN(C(=O)c4c(C)noc4C)CC3)C2)cc1	7%
COc1ccc(NC(C)=O)cc1NC(=O)CSc1nnc(-c2ccc(F)cc2)n1N	7%
O=C(COc1cccc(Oc2ccccc2)c1)Nc1ncccn1	1%
COc1cc(C(C)=O)ccc1OCC(O)CNCC1(N2CCCCC2)CCCCC1 (stereo not drawn)	2%
O=C(COc1ccc(S(=O)(=O)N2CCOCC2)cc1)Nc1ccc2c(c1)OCCO2	3%
COc1cc(/C=C(/C#N)c2ccc(F)cc2)ccc1OCc1ccc(C(=O)O)o1	?
CCOC(=O)Cn1cc(C(=O)c2cccs2)c2ccccc21	-6%
O=S(=O)(Nc1cccnc1)c1cccs1	9%
COc1ccc(OC)c(N=CC2=C(O)CC(C)(C)CC2=O)c1	-6%
COc1cc(OC)c2c(c1)OC(c1ccc(OC)c(OC)c1)C(O)C2=O (stereo not drawn)	2%
COc1ccc(NS(=O)(=O)c2ccc(OC)c3ccccc23)cn1	3%
COC(=O)c1ccccc1Nc1cc(C)nc2nc(C)nn12	0%
COc1cccc(CNn2c(-c3cccc(C)c3)nc3ccccc3c2=O)c1O	-18%
Cc1cc(C)c2oc(-c3ccc(Cl)c(NC(=O)c4ccc(C#N)cc4F)c3)nc2c1	?
SMILES	HSD17B inhib
O=C(CSc1nc(-c2ccco2)cc(C(F)(F)F)n1)NCCc1ccccc1	25µM*
O=C(c1cccs1)N1CCN(C(=O)N2CCOCC2)CC1	13%
CCOc1ccccc1NC(=O)N1CCC(NC(=O)c2ccccc2C)CC1	-10%
CSCC[C@H](NC(=O)OC(C)(C)C)c1nnc(SCc2ccc(F)cc2)o1	15%
Cc1nc(CNS(=O)(=O)c2ccc(Oc3ccccc3)cc2)cs1	4%
CCCOc1ccc(C(=O)N2CCCC2C(=O)O)cc1 (stereo not drawn)	-6%
NCC12CC3CC(C1)CC(CN)(C3)C2	3%
C#CCN1C(=O)C(O)(CC(=O)c2ccc(OC)c(OC)c2)c2ccccc21 (stereo not drawn)	-6%
CN(C)CCc1c[nH]c2ccc(CS(=O)(=O)N3CCCC3)cc12	11%
COc1ccc(CNc2cc(-c3ccccc3Cl)ncn2)c(OC)c1	3%
Cc1cc(C(=O)CSc2nnc(Cc3ccccc3)o2)c(C)n1Cc1ccc2c(c1)OCO2	25µM*
COc1ccccc1CNc1ccnc(-c2ccc(C(=O)N(C)C)cc2)n1	7%
O=C(NCC1CCCO1)C1CC(=O)N(C2CCCCCC2)C1 (stereo not drawn)	19%
COCCNc1nc(-c2ccccc2CN(C)C)nc2ccccc12	-2%
COc1ccc(N(CC(=O)N2c3ccccc3CC2C)S(=O)(=O)c2c(C)nn(C)c2C)cc1 (stereo not drawn)	8%
C=CCn1c(SCc2nc3ccccc3c(=O)[nH]2)nnc1-c1cc2cc(Cl)ccc2o1	?
COc1ccc(NC(=O)c2ccc(COc3ccccc3Br)o2)cc1OC	-18%
COc1ccc(-c2nc(CS(=O)CC(=O)NCc3ccc4c(c3)OCO4)c(C)o2)cc1 (stereo not drawn)	-25%
COC(=O)N1CCC2(CC1)CN(C(=O)Nc1cccc(F)c1)C2	1%
COc1ccccc1-c1c(C)nn2c(N3CCCCCC3)cc(C)nc12	?
CC(=O)Nc1ccc(S(=O)(=O)Nc2ccc(S(=O)(=O)N3CCCCCC3)cc2)cc1	5%
COC(=O)[C@@]1(Cc2ccc(F)cc2)[C@H]2c3cc(C(=O)N4CCCC4)n(Cc4ccccn4)c3C[C@H]2CN1C(=O)c1ccccc1	5%
CCc1ccc(NC(=O)Cn2c(=O)oc3cc(S(=O)(=O)N4CCOCC4)ccc32)cc1	3%
CCc1nc2ccccc2n(CC)c1=O	?
COc1ccc(C(O)c2coc3ccc(O)c(CN(C)C)c23)cc1 (stereo not drawn)	-5%
SMILES	HSD17B inhib
COC(=O)CS	2%
CC(C)CCN(C)C1CCN(S(=O)(=O)c2cccc(C(F)(F)F)c2)CC1	3%
CN(C)[C@H]1C(=O)C(C(=O)NCN2CCCC2)=C(O)[C@]2(O)C(=O)C3=C(O)c4c(O)cccc4[C@](C)(O)[C@H]3C[C@H]12	4µM*
CCN(CC)S(=O)(=O)c1ccc2nnn(OCC(=O)Nc3cccc(C#N)c3)c2c1	2%
CCOC(=O)CSc1nnc(CNC(=O)c2ccc(OC)cc2)n1-c1ccc(OC)cc1	-17%
C=Cc1c(C)/c2[n-]/c1=C\c1[n-]c(c(CC)c1C)/C=c1\[n-]c3c(c1C)C(=O)C(C(=O)[O-])C=3c1[n-]c(c(C)c1CCC(=O)[O-])\C=2.[Cu].[Na+].[Na+] (stereo not drawn)	6.3µM*
O=C(CNS(=O)(=O)c1ccc(C(=O)N2CCCCC2)cc1)N1CCCCC1	1%
CC1CN=C(c2cccn2Cc2ccc(F)cc2Cl)O1 (stereo not drawn)	-9%
Cc1cccnc1NC(=O)c1ccc2nc(N)sc2c1	-24%
CCCn1c(C)nc2c(N(CCN(CC)CC)CCN(CC)CC)nc(C)nc21	-2%
COc1ccc(N2C(=O)C3CCCN3C2c2cccs2)cc1 (stereo not drawn)	3%
CCOC(=O)CN(C(=O)CSc1nnc(COc2ccc(OC)cc2)n1C)c1ccccc1	7%
C=CCn1c(N2CCCC2)nc2c1c(=O)[nH]c(=O)n2C	0%
O=C(C1CCN(S(=O)(=O)c2ccc(-n3cnnn3)cc2)CC1)N1CCN(c2ccccc2)CC1	-13%
Cc1csc2nc(=O)c3ccccc3n12	25µM*
COc1ccc(-n2c(=O)c(-c3ccc(F)c(F)c3)nc3cncnc32)cc1	-3%
Cc1ccc(Cn2nnc3c(=O)[nH]c(C4CCN(S(=O)(=O)c5ccccc5)CC4)nc32)cc1	-21%
CC1(C)CC(=O)C=C(NCC2CCCO2)C1 (stereo not drawn)	4%
Cc1ccc(NC(=O)C2C3CC4OC(=O)C2C4C3)cc1Cl (stereo not drawn)	3%
O=C(O)CCn1c(C(=O)O)cc2sccc21	-5%
CN1CCN(c2nc(-c3ccc4c(c3)OCO4)nc3ccccc23)CC1	?
O=C(O)CC12CSc3[nH]c(=O)sc3C1c1ccccc1OC2=O (stereo not drawn)	-2%
Cc1ccc2[nH]c3c(c2c1)CN(C(=O)CN1CCN(c2ccccc2)CC1)CC3	0%
O=C(CN(C(=O)CNS(=O)(=O)c1ccccc1)c1ccc2c(c1)OCCO2)NC1CCCCC1	-13%
CCOC(=O)Cn1c(=NC(=O)CSC(C)=O)sc2ccccc21	4%
SMILES	HSD17B inhib
CC(C)(CN1CCCCC1)NS(=O)(=O)c1ccc(Cl)cc1	-2%
Clc1ccccc1N1CCN(c2ncnc3nc[nH]c23)CC1	1%
Cc1ccc(NC(=O)OCC(F)(F)C(F)F)cc1NC(=O)OCC(F)(F)C(F)F	-7%
Cc1ccccc1-c1cc(N2CCNCC2)ncn1	5%
Cc1c(C#N)c2ccccc2n1CC(=O)N1CCc2ccccc2C1	-2%
CCCCn1c(SCC(=O)N2CCOCC2)nnc1-c1cccs1	0%
COCC(=O)N1CCC[C@@]2(CCN(Cc3cc(C(F)(F)F)cc(C(F)(F)F)c3)C2)C1	-8%
O=C(CN1CCN(c2ccc(Cl)cc2)CC1)c1ccc2c(c1)OCO2	-5%
COC(=O)C1(C)NC(c2cccs2)C2C(=O)N(c3ccccc3F)C(=O)C21 (stereo not drawn)	4%
Cc1cccc(/N=C/c2c(O)cc(C)oc2=O)n1	-18%
CC1Cc2nc(SCC(=O)Nc3nccs3)n(C)c(=O)c2S1 (stereo not drawn)	-25%
CN(C)CCNC(=O)c1ccccc1-c1ccccc1	12%
OC1(c2ccc(Br)cc2)CCNCC1	3%
CCC1=C2CC[C@H]3C(=O)N(c4ccccc4)C(=O)[C@H]3[C@H]2[C@@]2(C)C(=NCC(=O)OC)OC(=O)N2C1=O	20%
CCC(NC(=O)NCCCn1ccnc1)(C(F)(F)F)C(F)(F)F	-3%
CCC(=O)c1ccc(OCC(O)CN2CCN(c3cccc(C(F)(F)F)c3)CC2)cc1 (stereo not drawn)	?
Cc1ccccc1Cn1cc(/C=N/n2cnnc2)c2ccccc21	-17%
CC(=O)Cc1ccccc1OCC(=O)O	11%
CCOc1cc(-c2c(C#N)c(N)nc3c2CCCC3)ccc1O	?

Molecules from the list above containing an aryl thioether with sulfur outside any ring (13):
SMILES	HSD17B inhib
CN(C)c1nc(N)nc(CSc2n[nH]c(-c3ccccc3)n2)n1	-2%
CC(=O)Nc1ccc(C(=O)CSc2nnnn2C(C)C)cc1	-13%
CCOC(=O)CNC(=O)CSc1nc2ncc(Br)cc2[nH]1	-5%
COC(=O)C(CC(C)C)NC(=O)CSc1nc(-c2ccccc2)c(C#N)c(=O)[nH]1 (stereo not drawn)	-10%
COc1ccc(NC(C)=O)cc1NC(=O)CSc1nnc(-c2ccc(F)cc2)n1N	7%
O=C(CSc1nc(-c2ccco2)cc(C(F)(F)F)n1)NCCc1ccccc1	25µM*
CSCC[C@H](NC(=O)OC(C)(C)C)c1nnc(SCc2ccc(F)cc2)o1	15%
Cc1cc(C(=O)CSc2nnc(Cc3ccccc3)o2)c(C)n1Cc1ccc2c(c1)OCO2	25µM*
C=CCn1c(SCc2nc3ccccc3c(=O)[nH]2)nnc1-c1cc2cc(Cl)ccc2o1	?
CCOC(=O)CSc1nnc(CNC(=O)c2ccc(OC)cc2)n1-c1ccc(OC)cc1	-17%
CCOC(=O)CN(C(=O)CSc1nnc(COc2ccc(OC)cc2)n1C)c1ccccc1	7%
CCCCn1c(SCC(=O)N2CCOCC2)nnc1-c1cccs1	0%
CC1Cc2nc(SCC(=O)Nc3nccs3)n(C)c(=O)c2S1 (stereo not drawn)	-25%
